Screening results: PubChem, National Center for Advancing Translational Sciences (NCATS)
SmPrx2 inh: Schistosoma Mansoni Peroxiredoxins (Prx2); Schistosoma mansoni peroxiredoxin 2 (Prx2); S. mansoni Prx2 activity coupled to TGR/GSH (TGR is thioredoxin glutathione reductase), NADPH fluorescence loss, qHTS; some inactives read as strong as hits; Potency, µM; 65,000 compounds, 0.07% hits; AID 448, 2006; active means full or partial inhibition curve with a strong effect at the top dose; inconclusive means weaker partial or single-point curve; inactive means no accepted curve; also: series up to 57 µM; many of its hits are not listed in these tables
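Purified S. mansoni TGR and Prx2 in pH 7.4 phosphate buffer with EDTA and Tween-20 were preincubated with compounds for 15 min. Further NADPH/GSH was added, then a 2.5 mM H2O2 aliquot initiated turnover, followed kinetically by NADPH fluorescence.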
Anthrax LT inh: qHTS Assay for Anthrax Lethal Toxin Internalization; Cells, anthrax lethal toxin internalization, FRET ratio (460/530); Potency, µM (series often up to 40 µM), for inactives: at the highest dose activity change, negative = inhibition, actives largely listed as inhibitors; 70,000 compounds, 0.67% hits; active = well fitted falling ratio curve with the 530 nm signal flat; inconclusive = other ratio curves, or a change in one channel alone; inactive = flat curves in the ratio and both channels; the % refers to the ratio; also: % is scaled to controls: 0 for no effect and ±100 for the full control effect; nearly all actives have a fitted effect of over 50% in size; tested in ME-180 cells; beta-lactamase reporter
* hit, by the source's call; ? = inconclusive; . = no result given; & = joins results of further samples; [ ] = another dose, or the depositor's remark. Potency is read from the fitted curve at half-maximal effect. These rows are one share of the data. The share of hits here may be higher or lower than overall.

compound | SmPrx2 inh | Anthrax LT inh
CC(C)C(c1nnnn1Cc1ccco1)N1CCN(C2CCCC2)CC1 (configuration not stated) | >57 | -13.0%
CN=c1scc(C)n1/N=C/c1ccc(O)cc1 | >57 | -5.6%
CN1CCN(c2ncncc2-c2ccc(N(C)C)cc2)CC1 | >57 | ?
Cc1csc2nc3ccccc3c(=O)n12 | >57 | 9.7%
CCN1C(=O)/C(=C2/Sc3ccccc3N2CCCS(=O)(=O)O)SC1=S | >57 | -2.1%
CCN(CC)S(=O)(=O)c1ccc(C(=O)OC2CCCCC2CN(C)C)cc1 (configuration not stated) | >57 | ?
Nc1ncc(-c2ccccc2)n1CC1CCCO1 (configuration not stated) | >57 | 4.0%
COC(=O)CC1Nc2ccccc2SC1=O (configuration not stated) | >57 | 8.7%
CCOC(=O)C(NC(=O)Nc1ccccc1)(OCC)C(F)(F)F (configuration not stated) | >57 | 4.0%
C=CCCC/C=C(/C)C(OCc1ccc(OC)cc1)C(CC/C=C(\C)C(N)=O)OC (configuration not stated) | . | 2.6%[8 µM]
O=c1c2cc(N3CCOCC3)ccc2[nH]c(=S)n1Cc1ccccn1 | >57 | ?
NC/C=C\C(=O)O | >57&>57&>57 | -5.6%&-2.5%&12.1%
COC(=O)CSc1nc(C)cc(Oc2ccccc2)n1 | >57 | 1.5%
COc1ccc(NC(=O)N2CCC3(CC2)CCN(C(=O)c2cnccn2)CC3)cc1 | >57 | ?
CC(=O)Nc1nonc1NC(=O)CSC1=NCCS1 | >57 | 9.2%
Cc1ccccc1NC(=O)C1CCC(C)(C(=O)O)C1(C)C (configuration not stated) | . | -3.0%
CN1CCN(c2nc3c(c(=O)[nH]c(=O)n3C)n2CCOc2ccccc2)CC1 | >57 | -12.2%
COc1ccc(-n2c(SCC(=O)Nc3cc(C)on3)nc3c(c2=O)SCC3)cc1 | >57 | 15.0%
O=C(Nc1ccccc1C(=O)OCc1nnc(-c2ccccc2)o1)c1ccco1 | >57 | -5.3%
CCOCCCNc1ccc(-c2ccccc2)nn1 | >57 | 2.9%

Other compounds follow:
compound | SmPrx2 inh | Anthrax LT inh
CN1CCN(C2=Cc3ccccc3Oc3ccc(Cl)cc32)CC1 | >57 | ?
Cc1nc2nc(C)c(CCC(=O)NCCCN3CCN(c4cccc(Cl)c4)CC3)c(C)n2n1 | >57 | -1.1%
COc1cccc(N2CCN(C3OC(=O)c4ccccc43)CC2)c1 (configuration not stated) | >57 | -14.4%
CCOC(=O)N1CCN(C(=O)C2CCCN(Cc3nc(-c4ccc(Cl)cc4)oc3C)C2)CC1 (configuration not stated) | >57 | -4.3%
CCOc1ccc(S(=O)(=O)Nc2nc3ccccc3nc2N2CCN(C)CC2)cc1 | >57 | .
CC(=O)Nc1ccc(C(=O)CSc2ncn(-c3ccccc3)n2)cc1 | . | -3.9%
Cc1ccc(S(=O)(=O)c2c(N)n(NC(=O)c3ccco3)c3nc4ccccc4nc23)cc1 | >57 | 16.7%
CC(C)c1nnc(NC(=O)c2cnccn2)s1 | >57 | ?
COCCn1c(-c2ccc(OC)c(OC)c2)nc2ccccc21 | >57 | 13.8%
COC(=O)c1ccc(C(=O)OC)c(NS(=O)(=O)c2ccc(NC(C)=O)cc2)c1 | . | ?
CN1CCCc2cc(C#N)c(=O)[nH]c21 | . | -9.6%
O=C1CC(c2ccccc2)Cc2nc(N3CCc4ccccc43)ncc21 (configuration not stated) | >57 | ?
O=C(OCCCCN1C(=O)c2ccccc2C1=O)c1ccc(Br)o1 | >57 | -4.8%
CC(C)NC(=O)N1CC[C@@]2(CCCN(C(=O)c3ccncc3)C2)C1 | >57 | -7.5%
COC(=O)c1cc2occc2n1CC(=O)Nc1ccc(OC)c(OC)c1 | >57 | -14.7%
O=C(Nc1ccc(Cl)cc1)C1CC2CCCC(C1)C2=O (configuration not stated) | . | -18.8%
C[C@]1(C(=O)NCc2cc(F)cc(C(F)(F)F)c2)C=C[C@@H](Cc2ccccc2)N1C(=O)c1ccccc1 | . | -26.3%
C=CCn1c(SCC(=O)Nc2cccc(C)c2)nnc1-c1cnccn1 | >57 | .
CCCS(=O)(=O)N1CCC(C(=O)N2CCc3ccccc3C2)CC1 | >57 | 5.4%
CC(=O)N1CCc2cc(S(=O)(=O)NCCC(=O)N3CCN(c4ccccn4)CC3)ccc21 | >57 | -9.6%

(further entries)
compound | SmPrx2 inh | Anthrax LT inh
CCOC(=O)COc1ccc2c(c1)C(=O)CC1(CCN(C(C)=O)CC1)O2 | >57 | ?
Cc1oc(-c2cccc(Cl)c2)nc1CN1CCC(C(=O)NCCCN2CCCC2=O)CC1 | >57 | -11.5%
Nc1cnn([C@@H]2O[C@H](CO)[C@@H](O)[C@H]2O)c(=O)n1 | . | -2.7%
O=C(Nc1cccc(F)c1)C1CCN(c2nnnn2-c2ccccc2)CC1 | >57 | -17.0%
Cc1onc(-c2ccccc2Cl)c1C(=O)NCCN1Cc2ccccc2C1=O | >57 | -19.1%
Cc1ccc(C(=O)NCCCC(=O)O)o1 | . | 7.8%
COc1cc(NC(=O)c2ccco2)c(OC)cc1NC(=O)Nc1ccc(Cl)cc1 | >57 | ?
O=C(c1ccccc1)c1ccccc1C(=O)N1CCCC1 | >57 | ?
CCCS(=O)(=O)N1CCCC(C(=O)NCC2CCCO2)C1 (configuration not stated) | >57 | 10.4%
CCc1cc(C(=O)NCCN(C)C)cs1 | >57 | -9.3%
CCOC(=O)c1ccc(NC(=O)CSc2nnc(CNc3ccc(OC)cc3)n2C)cc1 | >57 | -3.8%
CCOc1ccc2[nH]c3c(N4CCN(c5ccccn5)CC4)ncnc3c2c1 | >57 | ?
CCCCCCC(=O)Nc1c(O)c2ccccc2[nH]c1=O | >57 | -1.6%
COc1cc(NC(=O)c2cccs2)cc(OC)c1 | >57 | 5.8%
N=C(N)SC(c1ccccc1)c1ccccc1 | >57 | -2.7%[8 µM]
O=C(Nc1cccc(F)c1)c1cccnc1N1CCOCC1 | >57 | -4.6%
COC(=O)CSc1nnc(-c2ccco2)o1 | >57 | -0.2%
CCN(Cc1ccccc1)C(c1cc2cc(C)ccc2[nH]c1=O)c1nnnn1CCOC (configuration not stated) | >57 | ?
O=C(O)C1CCN(Cc2cnn(-c3ccccc3)c2-n2cccc2)CC1 | >57 | ?
Cc1ccc(NC(=O)NCCN2C(=O)C3C4C=CC(C4)C3C2=O)cc1 (configuration not stated) | >57 | 2.9%

Additional compounds follow.
compound | SmPrx2 inh | Anthrax LT inh
CN(C)c1nc(N)nc(N(c2ccccc2)c2ccccc2)n1 | >57 | -4.7%
Cc1ccccc1N1CC(c2nc3ccccc3[nH]2)CC1=O (configuration not stated) | >57 | -18.2%
Cn1cc(S(=O)(=O)Nc2ccc(Br)cc2F)c(=O)n(C)c1=O | >57 | -12.4%
O=C(O)/C=C(\CC(=O)O)C(=O)O | >57 | -6.4%[8 µM]
CCOC(=O)CNc1nnc(SCC(=O)OCC)[nH]c1=O | >57 | 1.5%
COc1cccc(Cn2c(=O)c(-c3ccc(F)cc3)nc3cnc(N(C)C)nc32)c1 | >57 | ?
C=CCn1nnnc1SCC(=O)Nc1cccc(OC)c1 | >57 | 6.1%
Cc1ccc(-c2nn[nH]n2)o1 | >57 | -11.9%
Cc1ccc(-c2nnc(N(C)C(=O)c3cccnc3)s2)cn1 | >57 | -14.7%
Cc1ccccc1CN1CCN(CC(=O)NCc2ccccc2)C1=O | >57 | .
CC(C)CN(CCNC(=O)CC1Oc2ccccc2NC1=O)CC(C)C (configuration not stated) | >57 | -2.6%
COC(=O)[C@@]1(Cc2ccc(OC)cc2)[C@H]2c3cc(C(=O)N(C)C)n(Cc4ccc(Cl)c(C(F)(F)F)c4)c3C[C@H]2CN1C(=O)c1ccccc1 | >57 | ?
COc1ccc(C2Nc3ccccc3C(=O)N2O)cc1OC (configuration not stated) | >57 | -1.4%
COCCCNS(=O)(=O)c1ccc2c3c(cccc13)C(=O)S2 | >57 | -18.8%
O=C(C1CC1)N1CCN(c2nc3ccccc3s2)CC1 | >57 | 7.5%
CC1=C(C(=O)N2CCOCC2)C(c2cc(C)cs2)NC(=O)N1 (configuration not stated) | . | -5.8%
CCCOc1ccc(N2CC(C(=O)Nc3ccccc3OC)CC2=O)cc1 (configuration not stated) | >57 | -5.8%
COc1ccc(NC(=O)CN(C)S(=O)(=O)c2cccs2)cc1 | >57 | 10.9%
COCCn1nnnc1CN1CCC(Cc2ccccc2)CC1 | >57 | -20.1%
COc1ccccc1CN1CCN(C(=O)COc2ccccc2)CC1 | >57 | -3.2%

The list goes on.
compound | SmPrx2 inh | Anthrax LT inh
CCc1cccc(NC2c3ccccc3C(=O)N2c2cccnc2)c1 (configuration not stated) | >57 | -3.3%
CCN(CC)S(=O)(=O)c1cccc(C(=O)Oc2cccnc2)c1 | >57 | -12.7%
CCOC(=O)N1CCC(Nc2c(N3CCN(c4cc(Cl)ccc4C)CC3)c(=O)c2=O)CC1 | >57 | ?
Cc1cc(-c2ccccc2)nc(=O)[nH]1 | >57 | 0.1%
CC1CCN(C(c2ccc(N(C)C)cc2)c2nnnn2Cc2ccccc2)CC1 (configuration not stated) | >57 | -20.5%
O=C(c1ccc(-c2nnc(-c3ccccc3)o2)cc1)N1CCCCCC1 | >57 | 4.6%
COCCCn1c(SCC(=O)NC2CCCCC2)nnc1-c1ccncc1 | >57 | 3.0%
CCOC(=O)C(C(C)=O)c1nc(C)nc2c1nnn2Cc1ccccc1Cl (configuration not stated) | >57 | -4.7%
Cc1cc(C)c(C(N)=O)c(Nc2cccc(Cl)c2C)n1 | >57 | -3.7%
CC(C)=CCc1c(C)nc2ccccc2c1C(=O)O | >57 | 10.3%
CCOc1ccccc1CNC(=O)C1CCC(=O)N1C(C)C (configuration not stated) | >57 | -10.0%
C[C@@H](C(=O)Nc1ccc2ccccc2c1)[C@@H]1C[C@@]1(C)[C@@H](NC(=O)c1cccnc1)c1ccccc1 | >57 | ?
Cc1cc(C(=O)NCc2cccs2)c(C)o1 | >57 | 17.5%
CCOC(=O)CSc1nc2cc(C(=O)NCc3ccco3)ccc2c(=O)n1-c1ccc(F)cc1 | >57 | -17.8%
CC(=O)N1C[C@@H]2C[C@H](C1)c1cccc(=O)n1C2 | >57 | ?
O=C1CC(c2ccco2)Cc2nc(Nc3ccc(F)cc3)ncc21 (configuration not stated) | >57 | ?
COc1ccc(OC)c(N(CC(=O)N2CCN(c3cc(Cl)ccc3C)CC2)S(C)(=O)=O)c1 | >57 | ?
O=c1cc(NCc2ccc3c(c2)OCO3)[nH]c(=O)n1-c1ccc(Cl)cc1 | >57 | ?
COc1cc2cc(CN(C(=O)NC3CCCCC3)C3CCCC3)c(=O)[nH]c2cc1OC | >57 | 13.4%
COc1cccc(Cn2c(=O)c(-c3cccs3)nc3cncnc32)c1 | >11.4 | ?

Going on with the list.
compound | SmPrx2 inh | Anthrax LT inh
O=C(NCCCN1CCCCC1)C1(S(=O)(=O)c2ccc(Cl)cc2)CC1 | >57 | -4.7%
COCCNC(=O)C1CC(=O)N(C2CCCCC2)C1 (configuration not stated) | >57 | -6.9%
Cn1c(-c2ccc3c(c2)OCO3)cc(=O)c2ccccc21 | >57 | 1.1%[3.58 µM]
COc1ccccc1N(CC(=O)Nc1ccccc1C)S(C)(=O)=O | >57 | -9.4%
CN1C(=O)c2ccccc2C(C(=O)O)C1c1cccc(F)c1 (configuration not stated) | >57 | -3.1%
O=C(CN1C(=O)C2C3C=CC(C3)C2C1=O)NCCc1ccccc1 (configuration not stated) | >57 | -10.6%
CCCC/C=C/C(NC(=O)CCc1ccccc1)c1ccccc1 (configuration not stated) | >57 | -11.4%
Cc1ccc(S(=O)(=O)N2CCC(C(=O)Nc3ccccc3N3CCCCC3)CC2)cc1 | >57 | -5.2%
CCOC(=O)N1CCN(C(=O)CSc2nnc(-c3ccc(C(C)(C)C)cc3)o2)CC1 | >57 | -6.6%
COc1ccc(N2CCN(c3ncnc4c3cnn4-c3ccc(C)cc3C)CC2)cc1 | >57 | -18.0%
COc1ccc(-c2noc(CCC(=O)N3CCN(c4cc(C)ccc4C)CC3)n2)cc1 | >57 | -6.9%
O=C(CCC1COc2ccccc2O1)NCC1COc2ccccc2O1 (configuration not stated) | >57 | -10.3%
c1cncc(CNc2nc(-c3cccnc3)nc3ccccc23)c1 | >57 | 13.0%
Nc1c(NCCC2=CCCCC2)c(=O)[nH]c(=O)n1Cc1ccccc1 | >57 | ?
CC(C)(C)c1nc2scc(-c3cccs3)c2c(=O)o1 | >57 | 11.8%
O=C(NCc1ccccc1Cl)c1cnn2cccnc12 | >57 | 27.3%
O=C1C2[C@@H](c3ccccc3)N[C@@H](c3ccccc3)C1[C@H](c1ccccc1)N[C@H]2c1ccccc1 | >57 | -4.3%[8 µM]
Cc1ccn2cc(C(=O)Nc3ccc4c(c3)OCCO4)nc2c1 | >57 | 7.94µM*
CCCn1c(CNc2ccccc2O)nc2ccccc21 | >57 | -9.2%
CCC(=O)Nc1c(C(=O)N2CCCCCC2)cnn1-c1ccc(C)c(C)c1 | >57 | 11.2%
CCN(CC)S(=O)(=O)c1ccc(Cl)c(C(=O)NC)c1 | >57 | -6.6%
O=c1c(O)c(-c2cccc(O)c2)oc2ccccc12 | >57 | -5.1%
CCOc1cc(C)c(Cl)cc1S(=O)(=O)n1nnc2ccccc21 | >57 | ?
